High-throughput results (PubChem BioAssay)
Sa growth 42C: S. aureus growth inhibition at 42 and 30 °C, primary screen, LtaS inhibitor project, RN4220, two temperatures | hit rate 0.53% among 170,000 | AID 720641, 2013 | OD600, 20 h, 42 °C; stronger effect = lower value | relative growth, % (test concentration not listed);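 active means growth at 42 °C up to 50% and 20 or more points under that at 30 °C, or under 10% at both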;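 further: 300 nL library stock went into each well; scaled to the means of positive and negative controls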
HCMV NEC inh: inhibitors of HCMV UL50-UL53 interaction, biochemical, HTRF | normalized percent inhibition | inhibition, % (concentration not given with the values) | hit rate 0.15% among 190,000;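 active means both replicates at 50% or more, plus weaker picks with an unusually low signal ratio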;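 further: stock transfer was 100 nL into about 20 µL; 0% = negative control wells and 100% = wells with untagged competitor protein; inactives centre near -12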
GIV Gai3 FP: inhibitors of GIV peptide binding to Galpha-i3, primary screen, biochemical, fluorescence polarization, FITC-GIV GBA peptide, rat Galphai3; percent of control (FP), % (concentration not given with the values); Guanine nucleotide-binding protein G(i) subunit alpha-3 (Rattus norvegicus), P08753; AID 1224905, 2016; 90 min; stronger effect = lower value; scaled: aluminum fluoride 0%, vehicle 100%; hit rate 0.42% among 210,000;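 active means replicate mean at 85% of control or lower, very high polarization wells dropped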;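 further: wells of about 15 µL received 100 nL stock; the first replicate is given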
Target sequence (P08753 whole entry, looked up): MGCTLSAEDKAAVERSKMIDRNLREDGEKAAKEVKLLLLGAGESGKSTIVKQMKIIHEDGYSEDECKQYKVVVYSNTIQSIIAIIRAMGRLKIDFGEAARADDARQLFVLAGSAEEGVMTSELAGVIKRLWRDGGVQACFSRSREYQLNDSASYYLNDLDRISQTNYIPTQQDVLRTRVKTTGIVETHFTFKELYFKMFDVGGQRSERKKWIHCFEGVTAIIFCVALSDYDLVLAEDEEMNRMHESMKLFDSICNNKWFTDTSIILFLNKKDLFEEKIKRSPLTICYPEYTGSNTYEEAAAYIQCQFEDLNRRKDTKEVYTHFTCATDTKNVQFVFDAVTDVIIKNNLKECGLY
Sa growth 42C second temp: further read-out of Sa growth 42C, marked with its call; relative growth, %; measured here: growth at 30 °C;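 optical density after 20 h as mean of two plates; 100% = untreated growth and lower means inhibition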
* marks the source's active call; other numbers are inactive results; nt = no result given.

SMILES	Sa growth 42C	Sa growth 42C second temp	HCMV NEC inh	GIV Gai3 FP
CC1CC(=O)N(Cc2ccc(F)cc2)c2ccccc2N1 (configuration not stated)	nt	nt	-12	102
Cc1cc(=O)[nH]c(Nc2ccc(O)cc2)n1	101	103	-5	106
CCOc1ccccc1NC(=O)Cn1c(=O)n(-c2ccc(C)cc2)c(=O)c2c1cnn2C	100	88	-3	98
O=C(O)c1ccc(Nc2c(-c3ccc(O)cc3)nc3cnccn23)cc1	nt	nt	-25	103
OCC12CC3CCC(CC(C3)C1)C2	95	89	-10	102
CCC1CCCCN1C1Sc2ccc(C(=O)OC)cc2NC1=O (configuration not stated)	96	96	-3	106
O=c1[nH]c2ccc(S(=O)(=O)N3CCCC3)cc2[nH]1	95	100	0	98
CCOc1ccccc1NC(=O)CNC(C)c1ccccc1OC (configuration not stated)	98	97	-2	nt
Cc1ccc(C2C3=C(CC(c4ccc(O)cc4)CC3=O)Nc3onc(C)c32)cc1 (configuration not stated)	nt	nt	-1	105
CCc1ccccc1NC(=O)Cc1noc2ccccc12	80	87	nt	97

As a working copy, 3 of the compounds above:
SMILES	Sa growth 42C	Sa growth 42C second temp	HCMV NEC inh	GIV Gai3 FP
Cc1cc(=O)[nH]c(Nc2ccc(O)cc2)n1	101	103	-5	106
CCOc1ccccc1NC(=O)Cn1c(=O)n(-c2ccc(C)cc2)c(=O)c2c1cnn2C	100	88	-3	98
O=C(O)c1ccc(Nc2c(-c3ccc(O)cc3)nc3cnccn23)cc1	nt	nt	-25	103

Next part.
SMILES	Sa growth 42C	Sa growth 42C second temp	HCMV NEC inh	GIV Gai3 FP
CCOc1cccc(/C=N/NC(=O)c2cccc(S(=O)(=O)N(CC)CC)c2)c1O	100	96	-13	nt
CN(Cc1nc2ccccc2c(=O)[nH]1)Cc1nc2sc3c(c2c(=O)[nH]1)CCCC3	101	98	-16	nt
CC(=O)Nc1ccc2c(c1)nc(CN1CCC(C)CC1)n2C(C)C	nt	nt	2	96
CC(=O)n1c2ccccc2c2c1c1ccccc1n2C	130	80	-9	101
N#Cc1c(C(F)(F)F)cc(-c2cccs2)nc1SCc1nc2c(oc3ccccc32)c(=O)[nH]1	73	89	-4	nt
Cc1ccc(CSCCNC(=O)CN(c2cccc(C)c2C)S(=O)(=O)c2ccccc2)cc1	97	88	-31	103
CCc1ccc(NC(=O)CSc2cn(CC(=O)N3CCCC3)c3ccccc23)cc1	92	95	nt	108
CCOC(=O)c1cc(Cl)c(O)c(Cl)c1	63	70	-32	nt
CCCOc1ccc(C(=O)N(Cc2ccc(N(C)C)cc2)CC2CCCO2)cc1 (configuration not stated)	89	77	-39	102
Cc1nc2nc(-c3ccc(C(C)(C)C)cc3)nn2c(C)c1CC(=O)N1CCC(C)CC1	nt	nt	-23	100

Entries of single compounds as entered above. Order of screens: Sa growth 42C	Sa growth 42C second temp	HCMV NEC inh	GIV Gai3 FP
CCOc1ccccc1NC(=O)Cn1c(=O)n(-c2ccc(C)cc2)c(=O)c2c1cnn2C in the list: 100	88	-3	98
CCc1ccc(NC(=O)CSc2cn(CC(=O)N3CCCC3)c3ccccc23)cc1 in the list: 92	95	nt	108
CCOc1ccccc1NC(=O)CNC(C)c1ccccc1OC (configuration not stated) in the list: 98	97	-2	nt

Continued:
SMILES	Sa growth 42C	Sa growth 42C second temp	HCMV NEC inh	GIV Gai3 FP
Fc1ccccc1Nc1ncnc2c1nnn2Cc1ccccc1	101	93	-6	109
Cc1ccc(C)c(NC(=O)C2CCCN(S(=O)(=O)c3c(C)noc3/C=C/N(C)C)C2)c1 (configuration not stated)	80	102	2	104
O=C(O)CCn1ccc2cc(S(=O)(=O)N3CCCC3)ccc21	95	82	-9	108
Cc1cc2c(cc3n2CC(C)(C(=O)NC2CCCCC2)N(CCCN(C)Cc2ccccc2)C3=O)o1 (configuration not stated)	nt	nt	5	106
COc1ccc(OCC(=O)Nc2ccccc2C(=O)N2CCOCC2)cc1	99	81	-10	nt
CCN(CC)C(=O)COc1ccc(Br)cc1Cl	91	85	-4	101
Cc1cc(C)cc(OCC(=O)OCC(=O)c2ccc3c(c2)NC(=O)CO3)c1	73	93	-1	nt
CCOC(=O)C1CCN(C(=O)N2c3ccccc3Sc3ccccc32)CC1	112	73	nt	107
O=C(Nc1ccc(-c2cn3cccnc3n2)cc1)C1CCCC1	93	90	-74	100
CC1CCCC(C)N1CCCNC(=O)c1ccc(N2CCCC2=O)cc1 (configuration not stated)	101	91	0	116

Given as labelled records: part of the list above.
CC1CC(=O)N(Cc2ccc(F)cc2)c2ccccc2N1 (configuration not stated)
  Sa growth 42C: nt | Sa growth 42C second temp: nt | HCMV NEC inh: -12 | GIV Gai3 FP: 102

Cc1cc(=O)[nH]c(Nc2ccc(O)cc2)n1
  Sa growth 42C: 101 | Sa growth 42C second temp: 103 | HCMV NEC inh: -5 | GIV Gai3 FP: 106

(list continues)
SMILES	Sa growth 42C	Sa growth 42C second temp	HCMV NEC inh	GIV Gai3 FP
COc1ccc(S(=O)(=O)NCC(c2ccco2)N2CCOCC2)cc1OC (configuration not stated)	103	97	nt	98
CCOC(=O)c1ccc(NC(=O)c2ccc(CN3C(=O)CCn4nc(C)cc43)cc2)cc1	105	71	nt	113
COc1ccc(-c2nnc3sc(CN4CCCCC4)cn23)cc1	94	88	-11	103
Cc1cccc(-n2nnnc2SCCCC(=O)c2ccccc2)c1	90	87	-16	nt
O=C(O)CCc1nnc(SCc2ccc(Cl)cc2Cl)[nH]c1=O	77	88	-28	107
O=C(/C=C/c1ccc(-c2cccs2)s1)N1CCSCC1	98	91	-39	103
Cc1nc(SCC(=O)N(c2ccccc2)C2CCS(=O)(=O)C2)n(CC(C)C)c1C (configuration not stated)	86	96	-29	nt
COc1ccc(Nc2nc3cc(Cl)c(Cl)cc3n3cnnc23)cc1Cl	97	90	-9	106
Cc1ccc(S(=O)(=O)N(CCc2ccccc2)CC(=O)Nc2cc(C)ccc2C)cc1	118	90	nt	101
COc1ccc(/C=C/c2nc(C#N)c(NCCc3ccc(OC)c(OC)c3)o2)cc1OC	106	94	14	103
CCOC(=O)c1nnc(-c2ccc(CN3CCc4ccccc4C3)cc2)o1	104	92	-8	103
CCc1cccc(-n2[nH]c3ncccc3c2=O)c1	nt	nt	-14	106
CCCC(=O)N(c1ccc2oc(C)c(C(=O)OCC)c2c1)S(=O)(=O)c1ccccc1	nt	nt	-12	100
O=C(Cn1ccn(-c2ccc(F)c(F)c2)c(=O)c1=O)c1ccc(F)cc1	99	91	-23	96
COc1cc(C#N)ccc1OCC(=O)c1cc(C)n(C)c1C	77	91	-28	nt
CCc1ccc(-n2nc(C)c3c(C)cc(=O)n(CC(=O)Nc4cc(Cl)ccc4OC)c32)cc1	92	90	nt	99
O/N=C(\C=N\O)C12CC3CC(CC(C3)C1)C2	98	91	-12	100
Cc1ccc(S(=O)(=O)NCC(c2cccnc2)N(C)C)cc1 (configuration not stated)	100	97	-12	104
COC(=O)c1ccc(N=Nc2sc3ccccc3c2O)cc1	97	80	-28	137
CC(C)Oc1ccc(CSCCN)cc1	98	90	-29	99
Cc1ccc(CNC(=O)CN2C(=O)CC(c3ccc(C)c(C)c3)=Nc3ccccc32)cc1	103	92	nt	101
CCCN(CCC)S(=O)(=O)c1ccc2c(c1)CCN2C(=O)CCC(=O)O	nt	nt	-36	99
NNC(=O)c1ccc(COc2ccccc2)o1	102	95	-8	nt
COCCn1c(C)cc(O)c(C(c2ccccc2)N2CCC(C)CC2)c1=O (configuration not stated)	79	91	nt	99
CC1(C2(C)NC(=S)N(c3ccccc3)N2)COCOC1 (configuration not stated)	104	85	-15	nt
c1ccc(CCN2CNc3nc4ccccc4n3C2)cc1	112	78	-5	100
Cn1cc(Br)c(NC(=O)/C=C/C(=O)O)n1	105	85	-11	94
COCCNC(=O)C1CCCCN1S(=O)(=O)c1ccc(F)cc1 (configuration not stated)	nt	nt	-7	107
COc1ccc(C2=[N+]([O-])C(C)(C)C(c3ccccc3)=N2)cc1	95	82	nt	100
O=C(O)Cn1ncc(=O)c2ccccc21	91	93	-63	nt
COc1ccccc1OCCOc1ccc([N+](=O)[O-])cc1-c1nc2sc3c(c2c(=O)[nH]1)CCCC3	nt	nt	-28	104
O=C(c1ccncc1)N(Cc1ccccc1)Cc1ccccc1	90	82	17	105
N#Cc1c2c(c(-c3ccco3)n3c1nc1ccccc13)CCCC2	94	93	-22	nt
O=C(CSc1cccc[n+]1[O-])c1ccccc1F	87	53	1	nt
CSc1ccc(S(=O)(=O)NCc2ccccc2)cc1	105	100	-3	98
CC(C)CCn1c(=O)c2cccnc2n(CC(=O)Nc2ccccc2)c1=O	98	92	-5	102
CN1C(=O)c2ccc(-c3nc4ccccc4s3)cc2C1=O	98	97	5	109
Cc1cccc(OCc2nc(C#N)c(NCc3ccccc3Cl)o2)c1	100	90	-14	97
CNc1oc(-c2ccc(COc3ccc(C)cc3)o2)nc1C#N	95	83	-47	100
COc1ccc(Nc2c(-c3ccccn3)nc3ccc(Cl)cn23)cc1	95	103	11	103
CCC(Sc1nncn1C)C(=O)Nc1sc2c(c1C#N)CCCC2 (configuration not stated)	107	93	-5	103
O=C(CC1CCN(C(=O)C2CCCCC2)CC1)NC1CCCCCC1	nt	nt	-24	95
c1ccc(CNc2c3c(nc4nncn24)CCC3)cc1	106	86	nt	104
Nc1nnc(SCC(=O)NC(=O)C2COc3ccccc3O2)s1 (configuration not stated)	114	104	7	nt
CCN(CC)CCNc1nc(-c2ccccc2F)nc2ccccc12	nt	nt	-16	103
Cc1cc(C)nc(NCC(O)CNc2ccccc2Cl)n1 (configuration not stated)	103	81	-8	98
O=C(Nc1ccccc1)c1nnc(-c2ccccc2)o1	86	84	-15	101
CCSc1ccc2nnc(-c3ccc(C)cc3)n2n1	65	59	nt	115
CCOc1ccccc1NS(=O)(=O)c1ccc(N2CCCCS2(=O)=O)cc1	116	94	nt	105
Cc1cccc(-n2ccnc2SCC(=O)Nc2nc3ccccc3s2)c1	101	83	nt	98

A draw from above in order of count of non-hydrogen atoms, ascending:
SMILES	Sa growth 42C	Sa growth 42C second temp	HCMV NEC inh	GIV Gai3 FP
CCSc1ccc2nnc(-c3ccc(C)cc3)n2n1	65	59	nt	115
O=C(Nc1ccccc1)c1nnc(-c2ccccc2)o1	86	84	-15	101
Cc1cc(C)nc(NCC(O)CNc2ccccc2Cl)n1 (configuration not stated)	103	81	-8	98

Next section:
SMILES	Sa growth 42C	Sa growth 42C second temp	HCMV NEC inh	GIV Gai3 FP
O=C(Cc1ccc(S(=O)(=O)N2CCCCC2)s1)OCC(=O)c1ccccc1	73	76	-57	nt
CN1CCN(C(=O)CN2C(=O)C3CCCCN3c3ccc(C(=O)N4CCCCC4)cc32)CC1 (configuration not stated)	nt	nt	-10	103
CCc1ccccc1NC(=O)c1ncoc1-c1ccco1	97	91	nt	99
O=C(O)[C@H]1CCCC[C@H]1C(=O)N[C@H]1CCCC[C@@H]1NC(=O)[C@H]1CCCC[C@H]1C(=O)O	83	89	-10	nt
COc1ccc(C(=O)Oc2cccc3cccnc23)cc1OC	83	77	-3	107
COc1ccccc1NC(=O)c1cc(-c2ccccc2)nc2ccccc12	nt	nt	-7	103
CSc1ccc(CCNC(=O)C2CCCN(S(=O)(=O)N(C)c3ccc(F)cc3)C2)cc1 (configuration not stated)	101	94	nt	108
CCc1ccc(C(=O)c2cn(CC(=O)Nc3ccc(OC)c(Cl)c3)c3nc(C)ccc3c2=O)cc1	99	99	nt	107
CCCNC(=O)c1ccc(Nc2cc(-c3cccc(C)c3)ncn2)cc1	nt	nt	6	104
CCOC(=O)c1nc2c([nH]1)C(c1ccncc1)C(C#N)=C(N)O2 (configuration not stated)	75	97	-22	nt
Cc1ccnc(NCc2ccc(Br)cc2)c1	98	83	nt	105
Cc1ccccc1OCC(=O)N(Cc1ccc(N(C)C)cc1)CC1CCCO1 (configuration not stated)	94	90	-5	111
CC(=O)c1ccc(NC(=O)c2c3c(nc4ccccc24)C(=O)N(C2CCCCC2)C3)cc1	85	95	nt	103
Cc1ccccc1Nc1c(-c2ccc(Cl)cc2)nc2c(C)cccn12	103	85	-21	99
CCCC(=O)N(Cc1nc2nc(C)cc(=O)n2[nH]1)c1ccc(F)cc1	nt	nt	-27	103
CC(SCc1ccccc1)C(=O)NC1CCCC1 (configuration not stated)	86	105	-14	100
Cc1cn(CCC(=O)NCc2ccc3c(c2)OCO3)c2ccccc12	108	80	-8	103
CCc1ccc(S(=O)(=O)c2nnn3c2nc(N2CCC(C(N)=O)CC2)c2cc(Cl)ccc23)cc1	119	57	3	105
OC(COc1ccccc1Br)CN1CCNCC1 (configuration not stated)	89	88	-11	nt
